AF4-AF9 inh: inhibitors of AF4 peptide binding to AF9, primary screen, biochemical, AlphaScreen, biotin-AF4 peptide, FLAG-AF9, single point; inhibition, % at 10 µM; 350,000 compounds, 0.47% hits;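 active means every replicate reaching a set inhibition limit, whatever the replicate mean, cut at about 25% in these data; inconclusive means mean inhibition reaches that limit but some replicates miss it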;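 further: 0% = plate neutral control median and 100% = total signal loss; the record names both 10 and 1 µM as test concentration; the first replicate is given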
Target sequence (P42568 whole entry, looked up): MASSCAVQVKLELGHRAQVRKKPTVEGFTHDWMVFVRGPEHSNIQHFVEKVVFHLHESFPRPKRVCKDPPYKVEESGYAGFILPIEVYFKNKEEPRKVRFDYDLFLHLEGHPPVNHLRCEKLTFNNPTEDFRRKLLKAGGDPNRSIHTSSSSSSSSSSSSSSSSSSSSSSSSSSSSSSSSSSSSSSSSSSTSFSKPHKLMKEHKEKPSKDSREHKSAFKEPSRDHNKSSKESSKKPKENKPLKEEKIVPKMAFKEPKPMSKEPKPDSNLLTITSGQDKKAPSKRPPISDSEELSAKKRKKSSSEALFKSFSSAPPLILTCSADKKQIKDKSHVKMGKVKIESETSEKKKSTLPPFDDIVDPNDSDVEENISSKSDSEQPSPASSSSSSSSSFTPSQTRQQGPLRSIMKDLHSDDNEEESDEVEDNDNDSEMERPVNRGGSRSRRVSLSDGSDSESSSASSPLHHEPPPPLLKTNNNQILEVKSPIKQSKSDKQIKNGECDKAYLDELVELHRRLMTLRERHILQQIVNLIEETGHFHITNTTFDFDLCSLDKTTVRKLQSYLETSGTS
Active calls of the source: *; ? = inconclusive. This is a subset (hit frequency here may not be typical).

SMILES | AF4-AF9 inh
C[C@@H]1CN([C@H](C)CO)C(=O)c2cc(NS(=O)(=O)c3cccs3)ccc2O[C@@H](C)CCCCO[C@H]1CN(C)S(=O)(=O)c1cccs1 | 1.3
COc1ccc(NC(=O)C(OC(=O)c2ccccc2)c2cccs2)cc1 (stereo not given) | 1.4
CC(=O)NC(c1ccc(F)c(F)c1)c1nc(-c2ccc3c(c2)OCO3)cs1 (stereo not given) | -4.5
C[C@@H]1CN([C@H](C)CO)C(=O)c2ccccc2-c2ccccc2CO[C@@H]1CN(C)S(=O)(=O)c1ccccc1C#N | -1.9
O=C(C[C@H]1C=C[C@@H](NS(=O)(=O)c2ccc(F)cc2)[C@@H](CO)O1)N1CCC(Cc2ccccc2)CC1 | -1.3
C[C@@H]1CCCCO[C@@H](CN(C)Cc2ccc(C(=O)O)cc2)[C@H](C)CN([C@@H](C)CO)C(=O)c2cc(NC(=O)C3CCCCC3)ccc2O1 | -0.3
O=C1NC[C@H](CCCCN2C[C@@H](Cc3ccccc3)N(CC3CCCCC3)C(=O)C2=O)N(CCC2CCCCC2)C1=O | 0.1
CCC(=O)Nc1ccc2c(c1)OC[C@@H](C)N(C(=O)CN1CCOCC1)C[C@H](C)[C@H](OC)CN(C)C2=O | 0.3
Cc1ccc(S(=O)(=O)N[C@@H]2CC[C@@H](CC(=O)NCc3ccccc3F)O[C@H]2CO)cc1 | 1.5
CC(=O)Nc1ccc(CNc2nc3cc(-c4ccc(F)cc4)sc3c(=O)n2C)cc1 | -2.0
O=C1NC[C@H](Cc2ccc(O)cc2)N(C[C@@H]2CCCN2C[C@H](Cc2ccccc2)N2C[C@H](Cc3ccccc3)N(CC3CCCCC3)C(=O)C2=O)C1=O | 1.4
CC(C)NC(=O)N(C)C[C@@H]1Oc2ncc(C#Cc3ccc(F)cc3)cc2C(=O)N([C@@H](C)CO)C[C@H]1C | -0.4
COc1ccc(S(=O)(=O)N(C)C[C@H]2OCCCC[C@H](C)Oc3ccc(NC(=O)Nc4c(C)noc4C)cc3C(=O)N([C@H](C)CO)C[C@H]2C)cc1 | -0.7
C[C@@H]1CN([C@@H](C)CO)S(=O)(=O)c2ccc(-c3ccccc3F)cc2O[C@H]1CN(C)C(=O)C1CC1 | 0.9
O=C(C1CCCCC1)N1C[C@H](n2cc(C3CC3)nn2)[C@@H](O)C[C@@H]1c1ccccc1 | -2.4
O=C(C[C@@H]1C[C@H]2c3cc(NC(=O)CC4CC4)ccc3O[C@H]2[C@H](CO)O1)NCC(F)(F)F | -2.0
CC(C)C#Cc1ccc2c(c1)O[C@H](CN(C)C(=O)c1ccccn1)[C@@H](C)CN([C@@H](C)CO)S2(=O)=O | -2.2
C[C@@H]1CN([C@H](C)CO)C(=O)Cc2cc(NC(=O)Cc3cn(C)c4ccccc34)ccc2O[C@H]1CN(C)C(=O)Nc1ccc(C(F)(F)F)cc1 | -1.1
CCN(C(=O)COC(=O)CCCc1c[nH]c2ccccc12)c1c(N)n(Cc2ccccc2)c(=O)[nH]c1=O | -1.4
C[C@H](CO)N1C[C@H](C)[C@H](CN(C)C(=O)Nc2ccccc2)Oc2ccc(NC(=O)CCC(F)(F)F)cc2C1=O | -13
CCN1C[C@@H]2[C@@H]3C(=O)N(Cc4ccccc4)C(=O)[C@@H]3[C@](Cc3ccccc3)(C1=O)N2C(=O)c1ccc(C(F)(F)F)cc1 | 2.7
CCCC#Cc1ccc2c(c1)O[C@H](CN(C)CC1CCOCC1)[C@@H](C)CN([C@H](C)CO)S2(=O)=O | 2.1
CCCNC(=O)N(C)C[C@@H]1Oc2ncc(-c3ccccc3F)cc2C(=O)N([C@@H](C)CO)C[C@H]1C | -1.8
CCCCNC(=O)C[C@H]1C[C@@]2(C(=O)OC)C(=C[C@H](COCc3ccccc3)O[C@@H]2C)N(CCC2=CCCCC2)C1=O | -4.3
CC1CCC2(CC1)NC(=O)N(CC(=O)Nc1cccc(C#N)c1)C2=O (stereo not given) | -0.3
CCCCCCCCN1C(=O)[C@H](CC(=O)NCc2cccc3ccccc23)C[C@@]2(C(=O)OCC)CCC=C12 | -2.7
C[C@@H]1CN([C@@H](C)CO)C(=O)c2cccc(NC(=O)C3CC3)c2O[C@@H]1CN(C)CC1CC1 | -4.4
C[C@@H]1CN([C@H](C)CO)C(=O)c2cc(NC(=O)C3CCCCC3)ccc2O[C@@H](C)CCCCO[C@H]1CN(C)Cc1ccncc1 | -1.5
O=S(=O)(N[C@@H]1CC[C@H](CCn2cc(-c3cccnc3)nn2)O[C@H]1CO)c1ccccc1 | 0.0
O=C(C[C@@H]1CC[C@H](NS(=O)(=O)c2ccccc2)[C@H](CO)O1)N1CCc2ccccc2C1 | -3.7
Cc1ccc(S(=O)(=O)Nc2ccc3c(c2)C(=O)N([C@@H](C)CO)C[C@@H](C)[C@@H](CN(C)S(=O)(=O)c2c(C)noc2C)OCCCC[C@@H](C)O3)cc1 | -1.7
O=C(NCC1CC1)[C@H]1[C@H](CO)[C@H]2Cn3c(ccc(-c4ccccc4F)c3=O)[C@@H]1N2Cc1ccncc1 | -1.3
CN1C(=O)c2cc(NC(=O)C3CC3)ccc2OC[C@@H]2O[C@@H](CC(=O)NCc3ccccc3F)CC[C@@H]21 | -5.8
C[C@H](CO)N1C[C@H](C)[C@@H](CN(C)C(=O)Nc2ccccc2)Oc2ccc(N(C)C)cc2C1=O | -1.4
COc1ccc([C@H]2C[C@H]3C(Br)=CC2C(=O)[C@]32CO2)cc1OC | 0.3
CC(=O)N1[C@H](CO)[C@@H](c2ccccc2)[C@@H]1CNC(=O)CN1CCOCC1 | -0.8
CCCNC(=O)Nc1ccc2c(c1)C(=O)N(C)C[C@H](OC)[C@H](C)CN(C(=O)C1CCOCC1)[C@H](C)CO2 | 1.9
Cc1noc(C)c1S(=O)(=O)Nc1ccc2c(c1)C(=O)N([C@@H](C)CO)C[C@H](C)[C@H](CN(C)S(=O)(=O)c1c(C)noc1C)OCCCC[C@@H](C)O2 | -13
CC(C)NC(=O)Nc1ccc2c(c1)CC(=O)N([C@@H](C)CO)C[C@H](C)[C@H](CN(C)C(=O)Nc1ccc(C(F)(F)F)cc1)O2 | -2.9
COc1ccc2c3c([nH]c2c1)[C@H](CO)NCC31CCN(C(=O)Cc2cccnc2)CC1 | 5.6
C[C@@H]1CCCCO[C@H](CN(C)Cc2ccc(C(=O)Nc3ccccc3N)cc2)[C@@H](C)CN([C@H](C)CO)C(=O)c2cc(NS(C)(=O)=O)ccc2O1 | -4.1
Cc1noc(C)c1S(=O)(=O)Nc1ccc2c(c1)CC(=O)N([C@H](C)CO)C[C@@H](C)[C@@H](CN(C)S(=O)(=O)c1ccc(Cl)cc1)O2 | -0.4
COc1ccc(C#Cc2cnc3c(c2)C(=O)N([C@H](C)CO)C[C@H](C)[C@H](CN(C)C(C)=O)O3)cc1 | -6.5
C[C@H](CO)N1C[C@H](C)[C@@H](CN(C)CC2CC2)Oc2ccc(NS(C)(=O)=O)cc2CC1=O | -3.4
CO[C@H]1CC[C@@H]2CCOc3c(C#N)cccc3C(=O)N(C)CCCC(=O)N(C)C[C@H]1O2 | -1.5
CCCC#Cc1ccc([C@@H]2[C@H]3CN(Cc4cncnc4)CCCCN3[C@H]2CO)cc1 | 5.3
C[C@H]1CN([C@@H](C)CO)C(=O)c2cccc(NS(C)(=O)=O)c2O[C@H]1CN(C)S(=O)(=O)c1cccs1 | -2.8
CN1C(=O)c2cc(NC(=O)c3cnccn3)ccc2OC[C@H]2O[C@@H](CC(=O)O)CC[C@H]21 | -0.2
CCC(=O)N1CC(=O)N2[C@H](CO)[C@@H](c3ccc(-c4cccnc4)cc3)[C@@H]2C1 | -1.4
CCCNC(=O)N1CC2(CCN(S(=O)(=O)c3ccccc3)CC2)c2c(n(C)c3cc(OC)ccc23)[C@@H]1CO | 13
CNC[C@H]1Oc2cc(C#CCN(C)C)ccc2S(=O)(=O)N([C@@H](C)CO)C[C@@H]1C | 19
C[C@H](CO)N1C[C@H](C)[C@H](CN(C)C(=O)c2ccccc2)Oc2ncc(C#Cc3ccccc3)cc2C1=O | -0.6
C=CCNc1ncnc2c1ncn2[C@H]1CN(Cc2ccccc2)C[C@@H](CO)O1 | -3.7
CN1C(=O)c2cc(NC(=O)Nc3ccc(F)cc3)ccc2OC[C@H]2O[C@H](CC(=O)NC3CCC3)CC[C@@H]21 | 0.2
COc1cccc(CN(C)C[C@H]2OCc3ccccc3-c3c(n(C)c4ccccc34)C(=O)N([C@H](C)CO)C[C@H]2C)c1 | ?
CN(C)c1ccc(-c2ccnc3c2CC(C)(C(=O)Nc2ccc4c(c2)OCO4)O3)cc1 (stereo not given) | 2.5
Cc1ccc(S(=O)(=O)N[C@H]2CC[C@H](CCn3cc(C4CCCC4)nn3)O[C@H]2CO)cc1 | -13
O=C(c1ccncc1)N1CC(=O)N2[C@H](C1)[C@@H](c1ccc(-c3cccnc3)cc1)[C@@H]2CO | -4.2
C[C@@H]1CCCCO[C@@H](CN(C)Cc2ccc(C(F)(F)F)cc2)[C@H](C)CN([C@@H](C)CO)C(=O)c2cc(NC(=O)NC3CCCCC3)ccc2O1 | 0.4
C[C@H](CO)N1C[C@H](C)[C@@H](CN(C)Cc2ccc(C(F)(F)F)cc2)OCCCC[C@H](C)Oc2ccc(N(C)C)cc2C1=O | 22

Next results follow.
SMILES | AF4-AF9 inh
CCC(=O)N[C@@H]1C=C[C@@H](CC(=O)NCc2ccc(OC)cc2)O[C@@H]1CO | -0.1
COCC#Cc1ccc([C@H]2[C@@H](CO)N3C(=O)CN(C(=O)C4CCOCC4)C[C@@H]23)cc1 | -0.6
COc1cc(OC)nc(Nc2nc(C(N)Cc3ccc(C(F)(F)F)cc3)cs2)n1 (stereo not given) | 7.9
C[C@@H]1CN([C@H](C)CO)C(=O)c2cc(C#CCC3CCCC3)cnc2O[C@@H]1CN(C)C(=O)CN(C)C | 5.4
CCc1cc2c(nc1CC)CCCN2S(=O)(=O)c1ccccc1 | -1.4
COc1ccccc1CNC(=O)C[C@H]1CC[C@@H](NC(C)=O)[C@@H](CO)O1 | -0.5
N#C[C@@H]1[C@H](c2ccccc2)[C@H](CO)N1C(=O)Cc1ccccc1 | -1.4
COc1ccc(S(=O)(=O)Nc2ccc3c(c2)CC(=O)N([C@H](C)CO)C[C@@H](C)[C@@H](CN(C)Cc2ccc(Cl)c(Cl)c2)O3)cc1 | 0.1
C[C@@H]1CN([C@H](C)CO)C(=O)c2c(c3ccccc3n2C)-c2ccccc2CO[C@H]1CN(C)C(=O)Nc1ccc(-c2ccccc2)cc1 | -4.6
C[C@@H]1CN([C@H](C)CO)C(=O)c2c(c3ccccc3n2C)-c2ccccc2CO[C@H]1CN(C)Cc1cccc2c1OCCCO2 | 15
COc1ccc(NC(=O)c2cc(C3CCCCN3C(=O)Cc3ccc(N(C)C)cc3)on2)c(C)c1 (stereo not given) | 4.2
C[C@H]1CN([C@@H](C)CO)C(=O)c2cc(C#Cc3ccccc3F)cnc2O[C@H]1CN(C)C(=O)C1CC1 | -0.6
N#C[C@H]1[C@@H](c2ccc(C3=CCCC3)cc2)[C@H](CO)N1C(=O)c1ccccn1 | -2.2
COc1ccc(CN2C[C@H](O)COC[C@@H]3O[C@H](CC(=O)N(C)C)CC[C@H]32)cc1 | -0.8
COc1ccc(-c2ccc([C@H]3[C@@H](C#N)N(C(=O)C4CCC4)[C@@H]3CO)cc2)cc1 | -1.3
C[C@@H]1CN([C@@H](C)CO)C(=O)c2cc(NC(=O)Nc3ccc(C(F)(F)F)cc3)ccc2O[C@H]1CN(C)Cc1ccccc1 | 3.4
C[C@H]1CN([C@@H](C)CO)C(=O)c2cccc(NC(=O)C3CC3)c2O[C@@H]1CN(C)C | 2.2
CCCNC(=O)N1CC2(CN(C(=O)C3CCCCC3)C2)c2c([nH]c3cc(OC)ccc23)[C@H]1CO | 1.7
CN1C(=O)c2cc(NC(=O)c3cscn3)ccc2OC[C@@H]2O[C@@H](CC(=O)N3CCCCC3)CC[C@H]21 | -1.0
O=C(c1ccccc1F)N1CC[C@H]2[C@H](CO)Nc3ccc(C#Cc4ccc(F)cc4)cc3[C@H]21 | 6.4
CCN(C[C@@H]1N[C@H](CO)[C@H]1c1ccc(C2=CCCC2)cc1)C(=O)c1ccncc1 | -1.5
C[C@@H]1CCCCO[C@H](CN(C)S(C)(=O)=O)[C@@H](C)CN([C@H](C)CO)C(=O)c2cc(NS(=O)(=O)c3cn(C)cn3)ccc2O1 | -4.8
COc1ccc2c3c(n(C)c2c1)[C@H](CO)N(C(=O)c1ccccc1)CC31CCN(C(=O)c2ccccc2)CC1 | 12

For reference, part of the list above:
SMILES | AF4-AF9 inh
C[C@H]1CN([C@@H](C)CO)C(=O)c2cccc(NC(=O)C3CC3)c2O[C@@H]1CN(C)C | 2.2
CCCNC(=O)N1CC2(CN(C(=O)C3CCCCC3)C2)c2c([nH]c3cc(OC)ccc23)[C@H]1CO | 1.7
CN1C(=O)c2cc(NC(=O)c3cscn3)ccc2OC[C@@H]2O[C@@H](CC(=O)N3CCCCC3)CC[C@H]21 | -1.0
O=C(c1ccccc1F)N1CC[C@H]2[C@H](CO)Nc3ccc(C#Cc4ccc(F)cc4)cc3[C@H]21 | 6.4
CCN(C[C@@H]1N[C@H](CO)[C@H]1c1ccc(C2=CCCC2)cc1)C(=O)c1ccncc1 | -1.5
C[C@@H]1CCCCO[C@H](CN(C)S(C)(=O)=O)[C@@H](C)CN([C@H](C)CO)C(=O)c2cc(NS(=O)(=O)c3cn(C)cn3)ccc2O1 | -4.8
COc1ccc2c3c(n(C)c2c1)[C@H](CO)N(C(=O)c1ccccc1)CC31CCN(C(=O)c2ccccc2)CC1 | 12

Screening results: PubChem BioAssay, Broad Institute
